Screening results: PubChem BioAssay, several laboratories
eIF4H inh: inhibitors of RNA binding by human eIF4H. Q15056. eIF4H fluorescence polarization binding assay. inhibition, % at 35 µM. actives 0.94% (n = 290,000);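 active = 50% or more with normal probe brightness, or confirmed in later tests; inconclusive = above 50% with abnormal brightness, or retests that disagree; inactive = below 50% or failed in later tests; about a fifth of its hits are not listed in these tables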;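 note: calls also rest on retests at 20 µM and on dose response follow-up; 0% = protein and probe with vehicle and 100% = probe without protein; strong numbers were not always called active; many hits fall short of the cut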
PABP FP inh: PABP-poly(A) binding inhibition; PABP-poly(A) RNA binding, fluorescence polarization; inhibition, % at 35 µM; actives 1% (n = 290,000); AID 2014;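 active = 50% or more with normal probe brightness, or confirmed in later tests; inconclusive = above 50% with abnormal brightness, or retests that disagree; inactive = below 50% or failed in later tests; about a fifth of its hits are not listed in these tables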;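 note: calls also rest on retests at 20 µM and on dose response follow-up; controls were probe without protein and protein plus probe with vehicle; some compounds called inactive have numbers as strong as hits; many hits fall short of the cut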
Target sequence (P11940 whole entry, looked up): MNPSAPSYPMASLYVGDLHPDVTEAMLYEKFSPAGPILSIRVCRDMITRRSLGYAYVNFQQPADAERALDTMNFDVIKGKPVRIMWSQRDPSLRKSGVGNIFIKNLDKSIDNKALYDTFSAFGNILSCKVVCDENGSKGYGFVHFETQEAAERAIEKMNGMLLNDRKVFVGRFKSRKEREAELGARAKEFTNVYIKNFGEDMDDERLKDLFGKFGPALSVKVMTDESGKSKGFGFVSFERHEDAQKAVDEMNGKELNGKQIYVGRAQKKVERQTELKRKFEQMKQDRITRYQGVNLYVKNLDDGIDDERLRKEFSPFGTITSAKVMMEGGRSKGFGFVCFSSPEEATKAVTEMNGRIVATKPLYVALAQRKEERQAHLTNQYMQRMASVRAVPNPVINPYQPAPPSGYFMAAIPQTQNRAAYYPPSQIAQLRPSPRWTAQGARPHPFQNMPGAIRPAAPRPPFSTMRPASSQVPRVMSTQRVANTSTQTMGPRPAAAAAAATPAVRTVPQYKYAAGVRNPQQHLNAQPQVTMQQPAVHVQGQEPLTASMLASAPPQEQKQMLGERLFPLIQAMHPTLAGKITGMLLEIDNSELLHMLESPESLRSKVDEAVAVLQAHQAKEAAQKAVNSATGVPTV
Rce1 inh: blocks yeast Ras-converting enzyme. Q03530. yeast membranes, quenched prenylated peptide cleavage fluorescence. calls only. actives 0.27% (n = 290,000);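 active = fall in fluorescence gain of 50% or more versus controls, with final raw signal at or below 3038400; inconclusive = same 50% fall but final raw signal above 3038400; inactive = fall in fluorescence gain under 50%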;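 note: plate controls were neutral control wells for no effect and wells lacking membranes for full effect; tested at 10 µM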
MT1-MMP act inh: blocks activation of human MT1-MMP | GFP/RFP ratio change, % at 20 µM | HT1080 RFP-PRO-GFP cells, GFP/RFP ratio fluorescence, overnight; percent of plate control window, DMSO zero | AID 651647 | P50281 | actives 0.061% (n = 360,000);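 active = GFP/RFP ratio change of at least 30% with cell ATP level not reduced by more than half and red fluorescence within 50% of control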; note: strong numbers were not always called active
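Assay system: HT1080 cells carrying an RFP-PRO-GFP reporter | Dosing: Single dose of 20 µM compound, 1% DMSO final | Incubation: Cells overnight before dosing, compound overnight, 37 °C, 5% CO2 | Evaluation: GFP/RFP fluorescence ratio | Control set: DMSO and RFP-L50D-GFP cell wells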
HIV Env fusion: HIV envelope-mediated fusion inhibition; inhibition, % at 12.3 µM; HeLa-JRFL Env/CEM21 cell fusion, luciferase; AID 651610; actives 1.1% (n = 360,000);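 active = mean replicate inhibition score of at least 50 and every replicate individually at or above 50; inconclusive = only one of the two criteria met; inactive = mean below 50 and not all replicates reaching 50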;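 note: 0% = plate neutral controls and 100% = maraviroc near 300 nM; one replicate is shown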
CSC inhib: cancer stem cell inhibition | cancer stem cell-like cells viability, luminescence | inhibition, % at 7.5 µM | actives 1.1% (n = 300,000) | AID 2717;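 active = mean at 75% or more and at least half the replicates too; inconclusive = mean and replicates disagree; tested in HMLE shEcad cells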;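 note: 0% = median of negative and 100% = median of positive control wells; the first replicate is given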
Yeast UUG start: modulators of start codon recognition fidelity in yeast | S. cerevisiae UUG-firefly luciferase reporter, luminescence/redox ratio | activity score, % at 18.7 µM | actives 0.13% (n = 350,000) | AID 602363;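 active = replicate mean at a twofold rise or more, about +100% in these data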;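 note: firefly luciferase made from a UUG start codon reports start codon fidelity; reporter light over untreated wells divided by growth signal over untreated wells; some hits fall short of that in this replicate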
MT1-MMP act inh RFP: also measured in MT1-MMP act inh; calls as there; RFP signal change, %; measured here: RFP expression control read;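 0 = vehicle wells; hits needed this value within 50% of zero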
Numbers without * were called inactive; i = inactive; u = inconclusive; x = not tested or not shown.

SMILES	eIF4H inh	PABP FP inh	Rce1 inh	MT1-MMP act inh	MT1-MMP act inh RFP	HIV Env fusion	CSC inhib	Yeast UUG start
CC(=O)Nc1ccc(NC(=O)C/C(C)=N/NC(=O)c2cccc3ccccc23)cc1	-4	-1	i	4	2	11	-2	-2
Cc1ccn(CC(=O)N2CCCC(N3CCN(c4cccc(Cl)c4)CC3)C2)n1 (centres undefined)	-2	6	i	0	2	-4	-1	-22
Cc1ccc2cc(CCNC(=O)Cc3cccs3)c(=O)[nH]c2c1	-1	-4	i	1	1	-52	8	-26
O=C(c1ccc(-c2cccc(C(F)(F)F)c2)o1)N1CCOCC1	-7	-4	i	1	1	x	-7	-15
COc1ccc(C)cc1NC(=O)C(OC(=O)c1ccc(Cl)c(S(=O)(=O)N(C)c2ccccc2)c1)c1ccccc1 (centres undefined)	-5	6	i	-1	-2	36	7	-11
CCOC(=O)c1c(N2C(=O)C3C4C=CC(C4)C3C2=O)sc2c1CCC(C)C2 (centres undefined)	3	-4	i	-2	6	24	x	-5
CN(C)/C=N/C(=S)Nc1ccc(Cl)cc1Cl	-2	-11	i	-2	4	-12	-15	x
CC(C)CNC(=S)N(CCCN(C)C)Cc1cc2cc3c(cc2[nH]c1=O)OCCO3	-1	0	i	-5	0	8	-4	-17
O=C(c1cccc([N+](=O)[O-])c1)N1CCN(c2ccc(Cl)cc2)CC1	0	-5	i	1	1	-1	-13	-10
CCOC(=O)C1(Cc2ccccc2C(F)(F)F)CCN(C(C)CCn2cccn2)CC1 (centres undefined)	5	6	i	x	x	-3	-3	x
COc1ccc([C@H]2/C=C\CN(S(=O)(=O)c3ccc(C)cc3)[C@@H](C)C(=O)N2Cc2ccc(F)cc2)cc1	x	x	i	-12	-17	21	-12	-8
COc1cc(C(=O)NNC(=O)c2ccco2)cc(OC)c1OC	2	1	i	3	0	1	x	-12
COc1cc(NC(=S)NC(=O)c2ccccc2F)ccc1NC(=O)c1cccs1	9	4	i	-4	-2	-8	12	-16
CCNc1sc(C(=O)c2cccs2)c(N)c1C#N	-3	35	i	1	5	x	-4	-35
Cn1nnnc1SCC(=O)Nc1nc2c(s1)CCCC2	-8	12	i	1	-3	-72	-2	-14
Cc1cc(N=Nc2ccc(C)c(N=Nc3cc(C)c(N)cc3N)c2)c(N)cc1N	43	u	i	26	-6	-62	30	4
CC(C)NC(=O)c1ccccc1NC(=O)C(C)Oc1ccccc1 (centres undefined)	0	33	i	3	-10	-7	-9	-3
COC(=O)c1ccccc1NC(=O)/C=C/c1cc(OC)c(OC)c(OC)c1	12	11	i	2	-4	x	-8	14
O=C(Nc1nc2c(Br)cccc2s1)C1CC1	4	-5	i	2	-1	x	-1	-6
O=C(Oc1c(CN2CCOCC2)cc(Cl)c2cccnc12)c1ccccc1Cl	14	10	i	-2	-1	8	20	-36
O=c1[nH]cc(C=NNc2ccccc2)c(=O)[nH]1	x	x	x	4	4	-9	x	-18
CCn1cc(CN2CCCC(C(=O)Nc3ccc(-c4cscn4)cc3)C2)c(C)n1 (centres undefined)	-3	-10	i	2	5	1	1	-2
CCOC(=O)Cn1c(=O)oc2cc(S(=O)(=O)N(C)Cc3ccco3)ccc21	1	0	i	-2	6	9	2	-19
CCc1cccc(NC(=S)N(CCCOC(C)C)C2CCN(C(C)=O)CC2)c1	1	0	i	-1	-3	3	x	-22
CNc1nc(SC(C)C(=O)Nc2ccc(Cl)c(Cl)c2)nc(N2CCOCC2)n1 (centres undefined)	-2	4	i	0	-2	0	-4	11
CC1CC(C)CN(C(=O)CCc2nnc3ccc(N4CCCCC4)nn23)C1 (centres undefined)	-1	4	i	-1	0	-5	-8	-18
O=C(NCc1cccs1)c1cc(-c2cccs2)on1	7	5	i	5	-2	-211	x	-30
CCOC(=O)N1CCC(N2Cc3cccc(C(=O)Nc4ccc(F)cc4)c3C2=O)CC1	-7	9	x	-5	-12	-38	-8	15
COc1cc(Cl)c(CN2CCC(CO)(CCOc3ccccc3)CC2)cc1OC	-5	1	i	3	-2	-4	35	-12
CCOC(=O)Cc1csc(N/N=C\c2cccc(Br)c2)n1	1	4	i	1	4	-18	-9	-17
COc1ccc([C@@H]2[C@@H]3C(=O)N(C(C)(C)C)C(=O)[C@@H]3[C@]3(C)C(=O)N(c4cccc(F)c4)C(=O)N23)cc1	5	3	i	0	-1	37	1	-2
c1ccc(-c2cn3c(n2)-c2ccccc2C3)cc1	-8	3	i	-3	-3	-54	28	-38
COC(=O)c1ccc(CSc2nnc(CNC(=O)COc3ccc(Cl)cc3)o2)o1	-4	8	i	1	-2	-46	-1	-11
CCCOC(=O)C(C)n1c(-c2ccccc2)nc2ccccc2c1=O (centres undefined)	-8	-5	i	4	3	-15	4	-8
CC(C)n1cc(CN2CCC(Oc3ccc(C(=O)N4CCCC4)cc3)CC2)cn1	-4	-1	i	4	3	28	6	-9
CCc1ccc(C(=O)CC2(O)C(=O)N(CN3CCOCC3)c3ccccc32)cc1 (centres undefined)	-8	-4	i	-3	-2	x	6	-7
CN1CCN(c2ccc(Cl)cc2NC(=O)c2cccc(S(=O)(=O)N(C)C)c2)CC1	5	6	i	-4	-2	x	-2	-30
Cc1ccc(C(=O)CC(C(=O)O)n2cccn2)cc1 (centres undefined)	-3	6	i	5	5	-31	4	-18
COc1cc(NC(=O)c2ccc3c(c2)OCO3)ccc1NC(=O)c1cccs1	-7	-5	i	7	0	-4	4	x
CN(C)c1ccc(/C=C(\NC(=O)c2ccccc2)C(=O)NCCCN2CCOCC2)cc1	-4	-23	x	0	3	-1	-5	-13

Continued, starting with the last two of the part before.
SMILES	eIF4H inh	PABP FP inh	Rce1 inh	MT1-MMP act inh	MT1-MMP act inh RFP	HIV Env fusion	CSC inhib	Yeast UUG start
COc1cc(NC(=O)c2ccc3c(c2)OCO3)ccc1NC(=O)c1cccs1	-7	-5	i	7	0	-4	4	x
CN(C)c1ccc(/C=C(\NC(=O)c2ccccc2)C(=O)NCCCN2CCOCC2)cc1	-4	-23	x	0	3	-1	-5	-13
COC(=O)C(C)NC(=O)c1cn(-c2ccccc2OC)c(=O)c2ccccc12 (centres undefined)	-4	5	i	5	5	-7	-6	-7
Cc1ccc(S(=O)(=O)N(C)/C(=N/S(=O)(=O)c2ccccc2)c2ccccc2)cc1	-18	1	i	2	2	x	8	-8
Cc1cccc(OCC(=O)O/N=C(\N)c2ccccn2)c1C	-5	4	i	2	-1	-211	-8	-22
O=S(=O)(/C=C/c1ccccc1)N1CCN(c2cccc(Cl)c2)CC1	-4	0	i	-5	-4	-34	-7	-3
COc1ccc(C2CC(c3ccccc3)=NN2S(=O)(=O)c2ccccc2)c(OC)c1 (centres undefined)	-1	-7	i	-6	-5	5	5	x
CCOC(=O)C1=CCN(Cc2ccccc2)CC1	2	9	i	0	0	-3	-5	-4
CCCC1S/C(=N/N=C/c2cccs2)NC1=O (centres undefined)	2	0	i	-2	2	x	4	-21
Nc1nc(Nc2ccc(Cl)cc2)n[nH]1	-4	4	i	2	1	x	-9	-7
CC1CN(C(=O)COC(=O)/C=C/c2ccccc2)CC(C)O1 (centres undefined)	x	x	x	-7	5	3	x	-15
C=CCOc1cc(C)nc(-c2ccccc2O)n1	5	-7	i	-2	-2	-20	-13	-49
O=C(O)C1CCN(C(=O)COc2ccc3c4c(c(=O)oc3c2)CCC4)CC1	2	3	i	3	6	x	x	5
Cn1c(=O)[nH]c2ccc([N+](=O)[O-])nc21	7	5	i	2	6	-44	-22	-11
CN(C)CC(O)COc1ccc(C(C)(C)c2ccc(OCC(O)CN(C)C)cc2)cc1 (centres undefined)	-2	26	i	4	0	-2	-7	-4
CC1CN(C(=O)c2ccc3c(c2)OCO3)CC(C)O1 (centres undefined)	-2	-4	i	3	1	x	-4	x
CCOC(=O)CSc1nc2ccccc2c(=O)n1Cc1ccco1	0	-9	i	5	6	x	-4	4
O=c1c(-c2n[nH]c(=S)o2)cccn1Cc1ccccc1	5	-2	i	3	3	19	7	x
CCCNC(=O)NC(=O)COC(=O)c1oc2ccc(OCC)cc2c1C	-4	-2	i	6	5	x	-13	-6
CC(=O)c1ccccc1NC(=O)CCCNC(=O)c1ccc(Cl)cc1	-2	2	i	-2	1	7	-28	7
O=C1Oc2ccccc2C2(O)C3CCCCCC3C12 (centres undefined)	-3	-11	i	2	-3	x	-8	3
c1ccc(N2CCN(c3nc4ccccc4n4cnnc34)CC2)cc1	4	-11	i	1	-4	0	19	-14
O=c1oc2cc(O)ccc2cc1-c1nc2c(s1)CCc1ccccc1-2	u	-6	x	-118	2	3	83*	x
Cc1cc([N+](=O)[O-])nn1CC(=O)NCc1ccco1	-4	-2	i	9	7	6	7	-17
O=C(O)C1CSC(c2ccc(O)c([N+](=O)[O-])c2)N1 (centres undefined)	-5	-2	x	3	-3	5	x	x
CN(C)/C=C1\C(=O)NN=C1C(F)(F)F	7	-3	i	-3	3	0	11	x
COc1ccc(C(=O)Nc2cc(C)nc3ccccc23)cc1OC	-5	10	x	1	-2	6	-1	-19
Cc1ccc(CNC(=O)c2sccc2-n2cccc2)cc1	-1	5	i	-7	-3	x	-9	x
CCOc1ccccc1N1CCN(C(=O)c2cc[n+]([O-])cc2)CC1	-8	-15	i	1	7	-13	10	-11
Cc1c(Cl)cccc1NC(=S)N(CCCN1CCOCC1)Cc1cccs1	2	-3	i	5	2	13	-13	-18
CCCCOc1ccc(N(CC(=O)NC2CCCC2)C(=O)CCC(=O)Nc2ccccn2)cc1	-6	2	i	-2	5	x	-10	-19
CN(C)C(=O)OCC1COc2ccccc2O1 (centres undefined)	-3	-2	i	7	5	-10	20	-13
CCOC(=O)c1cnc2c(Cl)c(Cl)ccc2c1NCCN1CCOCC1	-4	12	i	-3	-6	-2	-5	-15
CC(=O)c1ccc(N2CCN(c3ccc(C(F)(F)F)cn3)CC2)cc1	3	1	i	1	-21	u	5	-6
c1ccc(OCCOc2cccc3cccnc23)cc1	2	-7	i	3	2	9	-6	x
COCCSc1nc(N)c2c3c(sc2n1)CN(C)CC3	8	26	i	-3	3	11	-11	x
O/N=C/c1ccccc1Oc1ccc(Cl)cc1	-1	4	i	0	1	8	-8	x
O=C(c1ccc(N2C(=O)C3CCCCC3C2=O)cc1)N1CCCCC1 (centres undefined)	-3	-5	i	1	2	15	5	13
Cc1nnc(SCC(=O)NC23CC4CC(CC(C4)C2)C3)n(N)c1=O	-12	-12	i	-4	2	16	-16	x
COc1ccc(OCC(=O)NNC(=O)c2ccccn2)cc1	14	-1	i	-1	1	-29	9	x
Cc1nnc(-c2cnn(C)c2N)n1Cc1cccc(Cl)c1	-16	-2	i	1	4	-38	-1	-15
CSc1nnc(-c2cnccn2)n1CCCN1CCCC1=O	-3	-14	i	3	4	-3	-1	4
CCCn1c(=O)c(C(=O)NNC(=O)c2cccc([N+](=O)[O-])c2)c(O)c2ccccc21	6	-13	x	0	3	11	1	-7
COc1cc(OC)cc(C(=O)NCC(=O)OCc2csc(-c3ccccc3)n2)c1	-3	7	i	7	10	-40	-4	x

3 of the entries above in order of their number in MT1-MMP act inh, largest number first:
mol,Rce1 inh,MT1-MMP act inh,MT1-MMP act inh RFP,HIV Env fusion,Yeast UUG start
CSc1nnc(-c2cnccn2)n1CCCN1CCCC1=O,i,3,4,-3,4
CC(=O)c1ccc(N2CCN(c3ccc(C(F)(F)F)cn3)CC2)cc1,i,1,-21,u,-6
COCCSc1nc(N)c2c3c(sc2n1)CN(C)CC3,i,-3,3,11,x
